GLA inh pH 4.5: blocks human alpha-galactosidase A at pH 4.5 | P06280 | purified enzyme, 4-MU-alpha-Gal fluorescence, pH 4.5 | activity change, negative = inhibition, % at 105 µM | 230,000 tested, under 10 active | AID 1467; inconclusive = small, poorly fitted or top-dose-only inhibition, or a rising curve; inactive = flat fitted curve, though single readings scatter; no compound was filed as active;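 further: 0% = full activity with enzyme and -100% = basal without enzyme; dose as in the result columns while the protocol names 77 µM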
Rango complex inh: inhibitors of Rango-importin beta complex formation; 0.031% of 340,000 active; Potency, µM (titrated, usually from 92.2 µM), without a hit: at the top dose inhibition of complex formation; Rango CFP/YFP FRET sensor + importin beta, 45 min; Q14974; active = rising FRET ratio curve, often small or poorly fitted; inconclusive = mostly compound fluorescence or quenching in the first reads; inactive = flat curves in all reads;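 further: potency means the concentration at half of the fitted maximal effect; 0% = DMSO wells and 100% = buffer wells lacking importin beta; nearly all actives have a fitted effect of over 15% in size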
Target sequence (Q14974 whole entry, looked up): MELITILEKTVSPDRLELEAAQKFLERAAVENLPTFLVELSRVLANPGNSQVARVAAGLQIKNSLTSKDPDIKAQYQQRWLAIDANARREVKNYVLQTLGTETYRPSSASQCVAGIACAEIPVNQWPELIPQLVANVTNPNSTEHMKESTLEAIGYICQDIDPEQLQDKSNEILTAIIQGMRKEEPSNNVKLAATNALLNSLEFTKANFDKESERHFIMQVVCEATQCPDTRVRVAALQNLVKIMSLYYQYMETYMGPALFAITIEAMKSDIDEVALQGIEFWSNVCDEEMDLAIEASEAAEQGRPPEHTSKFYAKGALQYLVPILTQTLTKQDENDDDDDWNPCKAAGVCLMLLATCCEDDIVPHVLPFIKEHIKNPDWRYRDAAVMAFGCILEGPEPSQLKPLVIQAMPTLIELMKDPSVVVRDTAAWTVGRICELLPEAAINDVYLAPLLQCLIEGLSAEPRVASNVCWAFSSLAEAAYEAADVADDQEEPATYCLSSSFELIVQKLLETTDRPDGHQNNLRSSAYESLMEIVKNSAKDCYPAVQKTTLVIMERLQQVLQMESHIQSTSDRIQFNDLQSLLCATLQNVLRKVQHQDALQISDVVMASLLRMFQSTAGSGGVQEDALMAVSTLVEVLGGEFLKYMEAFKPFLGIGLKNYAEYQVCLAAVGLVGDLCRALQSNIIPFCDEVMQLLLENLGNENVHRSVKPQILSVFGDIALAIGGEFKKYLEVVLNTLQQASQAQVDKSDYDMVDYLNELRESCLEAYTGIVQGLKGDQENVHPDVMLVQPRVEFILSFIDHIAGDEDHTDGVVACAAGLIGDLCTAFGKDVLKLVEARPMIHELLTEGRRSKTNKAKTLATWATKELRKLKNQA
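FRET biosensor Rango (snurportin 1 IBB between N-terminal EYFP and C-terminal Cerulean), 50 nM in PBS/1 mM DTT/0.02% Tween-20/0.1% BSA, preincubated 5 min RT with compound; 0.125 microM importin beta added, 45 min RT, CFP/YFP FRET ratio read.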
Rango release inh: inhibition of RanGTP-driven Rango-importin beta dissociation; O95149+P62826; Potency, µM (highest dose often 46.1 µM), without a hit: at the top dose activity change, negative = inhibition; AID 540253; 0.071% of 340,000 active; Biochemical FRET Rango-importin beta, RanGTP-induced dissociation; active means falling FRET ratio curve, often poorly fitted, with flat reads before Ran was added; inconclusive means other falling curves, or compound fluorescence or quenching; inactive means flat or rising ratio curve;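 further: potency means the concentration at half of the fitted maximal effect; % of control where 0% means no effect; nearly all actives have a fitted effect of over 45% in size; -100% = wells without RanGTP and RCC1; the record marks most hits as doubtful in a second field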
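FRET read at 45 min, room temperature: inhibitors block the CFP/YFP signal rise when RanGTP (0.6 uM Ran, 2 mM GTP, 0.2 uM RCC1) frees Rango (0.1 uM) from importin beta (0.25 uM). Pre-read after 5 min compound exposure flags interference.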
miR-21 FLuc: raises the signal of a miR-21 reporter. HeLa miR-21 FLuc reporter, luciferase, 48 h. Potency, µM (titrated, usually from 38.3 µM), for the others: at the highest dose reporter change, positive = more light. 340,000 tested, under 10 active. AID 2288; active = well fitted rising curve with a large enough effect; inconclusive = small, poorly fitted or top-dose-only effect; inactive = no such curve, though single readings can be large or run the other way;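 further: % of control where 0% means no effect; miR-21 action dims this reporter so a rising signal means less miR-21 action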
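Using DMEM plus 10% FBS, HeLa miR-21-FLuc cells are incubated with test compounds (final up to about 40uM) for 48 hours; firefly luciferase signal is then imaged following reagent-mediated lysis.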
Starred values were filed as active, the others as inactive; ? = inconclusive; / = no result given; & = joins results of further samples; [ ] = another dose, or the depositor's remark.

SMILES | GLA inh pH 4.5 | Rango complex inh | Rango release inh | miR-21 FLuc
FC(F)(F)c1ccc(NC2=NCCCS2)cc1 | / | -2.1% | 1% | -30%
CCOC(=O)CCCCCNC(=O)c1c(O)[nH]c(=O)[nH]c1=O | / | 0.7% | 6% | /
O=c1ccc2cc3ccoc3c(O)c2o1 | / | -0.8% | ? | /
N[C@@H](Cc1c[nH]c2ccccc12)c1nnc(SCc2ccccc2)o1 | -7 | -2.6% | -1% | -12%
O=C(N[C@H]1CP(=O)(Oc2ccccc2)O[C@H](COCc2ccccc2)[C@H]1O)C(Cl)(Cl)Cl (stereo not given in full) | -4 | -1.1% | -10% | 6%
Cc1c(C(=O)c2cccc3ccccc23)c2cccc3c2n1[C@H](CN1CCOCC1)CO3 | 2&-5 | 4.1% | 39% | /
COC(=O)C1=C(c2ccc(S(C)(=O)=O)cc2)C[C@@H]2CC[C@H]1N2C | / | 6.7% | -2% | /
CC(C)CC12CN3CCN(CC(C3)C1O)C2 (stereo not given) | / | -2.7% | 2% | -10%
O=P(Oc1ccccc1)(Oc1ccccc1)C(Nc1ccccc1)c1ccccc1 (stereo not given) | -2 | 2.8% | 1% | 2%
c1ccc2c(c1)CC1CNCc3cccc(c31)S2 (stereo not given) | 4 | -4.0% | 1% | -8%
O=c1[nH]c(O)c(/C=C2\C=Nc3ccc(OCc4ccccc4)cc32)c(=O)[nH]1 | / | 23% | ? | -14%
Cc1cc(C)c(C)c(C(O)(C(=O)O)c2ccccc2)c1C (stereo not given) | / | 0.2% | 11% | /
CNC(=S)N(C)CCc1cc2c(c(OC)c1/C=C1/C(=O)NC(=O)N(C)C1=O)OCO2 | 0 | 0.1% | -11% | 1%
O=C(c1ccccc1[N+](=O)[O-])N1CCC2(CC1)OCCO2 | / | 6.6% | -12% | -1%
Cc1cc(/C=C2/C(=O)NC(=O)N(Cc3ccco3)C2=O)c(C)n1-c1ccc(C(=O)O)cc1 | -26 | ? | ? | 0%
Cc1cc(C)c2c(c1)NP(=S)(c1ccccc1)N2 (stereo not given) | / | 4.3% | 2% | /
CC(O)(CS(=O)(=O)c1ccc(F)cc1)C(=O)Nc1ccc(C#N)c(C(F)(F)F)c1 (stereo not given) | -11 | / | / | 11%
Cc1ccn2nc(S(=O)(=O)Nc3c(F)cccc3F)nc2n1 | -8 | -0.5% | -15% | -5%
CC(C)CC(N(C)C)C1(c2ccc(Cl)cc2)CCC1 (stereo not given) | -4&0 | -4.6%&-0.1% | 10%&-14% | /
CCOC(=O)c1c(C)n(Cc2ccco2)c2ccc(OC)cc12 | -3 | 0.0% | 5% | -9%
C=C1C(=O)OC2C1CCC(C)C1(O)C=CC(=O)C21C (stereo not given) | / | -0.3% | -1% | /
CN(C)CCc1nc2ccccc2c(=O)n1-c1ccccc1 | -4 | / | / | -11%
CN1C(=O)NC(=O)/C(=C\C=C\c2ccccc2[N+](=O)[O-])C1=O | 2 | -0.2% | -6% | ?
COc1ccc(C(C)=O)cc1CC(C(=O)c1ccccc1)N(C)C (stereo not given) | 2 | -2.4% | -7% | -31%

Two records drawn at random from the list so far, as already listed:
SMILES | GLA inh pH 4.5 | Rango complex inh | Rango release inh | miR-21 FLuc
CCOC(=O)c1c(C)n(Cc2ccco2)c2ccc(OC)cc12 | -3 | 0.0% | 5% | -9%
Cc1cc(C)c2c(c1)NP(=S)(c1ccccc1)N2 (stereo not given) | / | 4.3% | 2% | /

The list goes on.
SMILES | GLA inh pH 4.5 | Rango complex inh | Rango release inh | miR-21 FLuc
CN1CCN(c2nc3ccccc3c(=O)n2-c2ccccc2)CC1 | 4 | -5.9% | -12% | -8%
COP(=O)(OC)C1(Nc2ccc(C)cc2)CCCCC1 | -7 | -1.6% | 0% | 5%
Cc1nn(-c2ccccc2)c2c1CC1(C(=O)N(C)C(=O)N(C)C1=O)C1CCCCN21 (stereo not given) | -6 | 1.4% | -8% | -2%
C=CCCC1(CC)C(=O)NC(=S)NC1=O | / | 0.6% | 0% | /
COC(=O)[C@@H](c1ccccc1)C1CCCCN1 (stereo not given in full) | / | -1.3% | -1% | /
Cc1ccccc1CN1CCN(Cc2ccccc2)CC1 | -7 | -2.5% | 9% | -4%
COc1cccc(C(=O)C2CCCN(C3CCOCC3)C2)c1 (stereo not given) | -2 | -0.1% | 11% | 0%
c1ccc2c3c(ccc2c1)OCC1CONC31 (stereo not given) | 1 | -5.1% | -18% | -10%
CC1=CC(C)C(COC(N)=O)(COC(N)=O)C(C)C1 (stereo not given) | -2 | -3.0% | -29% | -1%
COc1cc2c3c(c1OC)-c1cc(O)ccc1CC3NCC2 (stereo not given) | 5 | -3.1% | 7% | 3%
CCCC12CN3CC(CCC)(CN(C1)C3c1ccccn1)C2=O (stereo not given) | 0 | -0.2% | 11% | -4%&5%
OC1(c2ccc(F)cc2)CC2CCC(C1)N2Cc1nnnn1C1CCCC1 (stereo not given) | 8 | -0.8% | 2% | -5%

5 entries from above, as a markdown table:
| smiles | GLA inh pH 4.5 | Rango complex inh | Rango release inh | miR-21 FLuc |
| --- | --- | --- | --- | --- |
| c1ccc2c(c1)CC1CNCc3cccc(c31)S2 (stereo not given) | 4 | -4.0% | 1% | -8% |
| N[C@@H](Cc1c[nH]c2ccccc12)c1nnc(SCc2ccccc2)o1 | -7 | -2.6% | -1% | -12% |
| CCCC12CN3CC(CCC)(CN(C1)C3c1ccccn1)C2=O (stereo not given) | 0 | -0.2% | 11% | -4%&5% |
| CN1CCN(c2nc3ccccc3c(=O)n2-c2ccccc2)CC1 | 4 | -5.9% | -12% | -8% |
| C=CCCC1(CC)C(=O)NC(=S)NC1=O | / | 0.6% | 0% | / |

Next section
SMILES | GLA inh pH 4.5 | Rango complex inh | Rango release inh | miR-21 FLuc
CCCC(C)C1(CC)C(=O)NC(=Nc2ccccc2)NC1=O (stereo not given) | -11 | 0.0% | 2% | -2%
CN(C)CCN(CC1CCCN(Cc2ccccc2F)C1)C(=O)Cc1ccc(F)c(F)c1 (stereo not given) | / | -2.2% | -15% | -7%
Cc1cc(O)c(CN2CC=C(c3ccccc3)CC2)cc1C(C)C | / | -3.6% | 7% | -2%
O=C1CCCC2=C1C(c1cccnc1)Nc1ccccc1N2 (stereo not given) | 1 | 0.3% | -7% | 2%
O=C(/C=C/C=C/c1ccccc1)CC1(O)C(=O)Nc2ccccc21 (stereo not given) | 6[21.1 µM] | 4.1% | 7% | -8%
COC(=O)C1=C(c2ccc(OC)c(OC)c2)C[C@@H]2CC[C@H]1N2C(=O)N1CCC(O)CC1 | / | -2.3% | 2% | /
COC(=O)C1=C(c2ccc(F)cc2OCc2ccccc2)C[C@@H]2CC[C@H]1N2C(=O)NCc1ccc(Cl)cc1 | / | 0.5% | 13% | /
Nc1ccccc1C(=O)OCC(=O)N1CCc2ccccc21 | 13 | 2.1% | 6% | -56%
COc1ccc(C(O)c2cc(OC)ccc2OP(=O)(N(C)C)N(C)C)cc1 (stereo not given) | -8 | 4.1% | -16% | -6%
O=C(Cc1ccc(N(CCCl)CCCl)cc1)NC(Cc1ccc(Cl)cc1)C(=O)O (stereo not given) | / | -0.2% | -13% | 0%
Cc1ccccc1OCCN=Cc1c(O)n(C)c(=O)n(C)c1=O | -1 | -3.0% | 0% | -11%
CCOc1ccc(C(C)=O)cc1Cn1ccsc1=N | / | 3.6% | -11% | 0%
Cc1nc2sccc2c(=O)n1-c1ccccc1Cl | 4 | -6.1% | 14% | -25%
CC(=O)OC1=CC[C@H]2[C@@H]3CC[C@H]4C[C@H](OC(C)=O)[C@@H](OC(C)=O)C[C@]4(C)[C@H]3CC[C@]12C | / | 0.2% | -1% | /
c1ccc2c(c1)CNCc1cnnn1-2 | / | -2.3% | 3% | /
Cn1nccc1C(=O)N1CCC2(CC1)OCCO2 | / | -4.5% | -11% | -2%
CCSC(=O)N1CCCCCC1 | / | -3.6% | 1% | /
CCn1c(NN=O)nc2ccccc21 | -1 | -0.2% | 21% | 29%
COc1ccccc1NC(=O)N1C[C@@H]2C[C@@H](C1)c1cccc(=O)n1C2 | / | 4.3% | 14% | 2%
O=C1N[C@@H](Cc2ccccc2)C(=O)N2[C@H]1C[C@H]1c3ccccc3N(OOSc3ccccc3)[C@H]12 | / | 0.0% | 1% | /
COC(=O)C1=C(c2cc3ccccc3s2)C[C@@H]2CC[C@H]1N2C(=O)NCc1ccco1 | / | 4.5% | -24% | /
CC1(C)C2CC=C(CN3CCC(O)CC3)C1C2 (stereo not given) | -6 | -0.1% | -1% | -2%
CC(=O)N[C@@H]1CC[C@@]2(O)[C@H]3Cc4ccc(O)c5c4[C@@]2(CCN3CC2CC2)[C@@H]1O5 | / | 4.6% | 0% | /
COc1ccc(-c2nn(CCC#N)cc2C(=O)Nc2ccccc2Br)cc1[N+](=O)[O-] | -3 | -0.7% | 10% | -10%
COc1ccc(Cn2c(O)c(C=NCCN3CCOCC3)c(=O)[nH]c2=O)cc1 | -6 | -7.4% | -8% | -2%
Oc1cc(Cl)c(Cl)c(Cl)c1 | / | -0.9% | 8% | /
COc1ccc(C=C2C(=O)N(C)C(=O)N(C)C2=O)cc1CSc1ccccn1 | -2 | -0.3% | -7% | -10%
CN1C(=O)C(=Cc2ccccc2OCc2ccc(Cl)cc2)C(=O)N(C)C1=O | 4 | -5.1% | -15% | -37%
COc1ccc(C(O)(c2ccccc2)c2ccncc2)cc1 (stereo not given) | / | -1.0% | 3% | /
Cc1cccc(-n2c(C)nc3cc(C(=O)N4CCC5(CC4)OCCO5)ccc32)c1 | 0 | ? | 0% | 15%
CCn1c(O)c(C=NCc2cccs2)c(=O)[nH]c1=O | -5 | 2.8% | 13% | 5%
CC1CCN(C(=O)COC(=O)c2cn(C)c3ccccc23)CC1 | / | 4.6% | -9% | /
COC(=O)CN1C(=O)CN=C(c2ccccc2Cl)c2cc(Br)ccc21 | -3 | 2.3% | -15% | -3%
Cc1ccc(O)c(CN2CCN(c3ccccc3)CC2)c1 | 4 | 1.7% | -3% | -6%
CCOc1ccc(C2(C#N)CC[N+](C)(C)CC2)cc1 | 6 | -0.8% | 13% | -2%
Cc1ccc(CNCCc2ccc(F)cc2)s1 | / | 1.1% | 2% | -9%
Cc1cccc(C(=O)Nc2ccc3c(c2)CC2(C(=O)N(C)C(=O)N(C)C2=O)C2CCCN32)c1 (stereo not given) | / | ? | ? | -7%
NC(=O)OCCSc1nnc(-c2cccc(C(N)=S)c2)o1 | 4 | -3.1% | 2% | -8%
O=c1cc(CN2CCNCC2)nc2sccn12 | / | 0.8% | -6% | 0%
CCN1CCN(Cc2cccnc2)CC1 | / | 2.8% | 0% | 1%
O=C(c1c[nH]c2ccc(S(=O)(=O)N3CCC4(CC3)OCCO4)cc2c1=O)N1CCC2(CC1)OCCO2 | 8 | 1.4% | 0% | 1%
CC(C)Oc1ccc(CCN)cc1Cl | 7 | -1.6% | 2% | -9%
C=C(C)[C@@H]1[C@H]2OC(=O)[C@H]1[C@]1(O)C[C@H]3O[C@]34C(=O)O[C@H]2[C@]14C | / | -4.0% | 8% | /
COc1ccc(-n2c(C)nc3ccccc3c2=O)c([N+](=O)[O-])c1 | / | -0.6% | 2% | -4%
O=c1[nH]sc2cc(F)ccc12 | -10[21.1 µM] | -0.8% | 8% | ?
O=C(Nc1ccc(F)cc1)N1CC2CC(C1)c1cccc(=O)n1C2 (stereo not given) | 6 | -1.3% | -8% | -11%
CCN(C(=O)COC(=O)c1cc(C)n(C2CC2)c1C)c1ccccc1 | / | -1.3% | 5% | /
COC(=O)C1=C(c2cc3ccccc3s2)C[C@@H]2CC[C@H]1N2C(=O)NC1CC1 | / | -2.2% | -7% | /
CC1OC(C[N+](C)(C)C)CC1O (stereo not given) | / | -3.2% | -2% | /
O=C(/C=C/c1cccs1)c1cc(Cl)ccc1OC(=O)N1CCOCC1 | -10 | -3.8% | 4% | ?
C[C@H]1CC[C@@H]2[C@@H](C)[C@H]3[C@H](C[C@H]4[C@@H]5CC=C6C[C@@H](O[C@@H]7O[C@H](CO)[C@H](O)[C@H](O[C@@H]8O[C@H](CO)[C@@H](O)[C@H](O)[C@H]8O)[C@H]7O[C@@H]7O[C@@H](C)[C@H](O)[C@@H](O)[C@H]7O)CC[C@]6(C)[C@H]5CC[C@]34C)N2C1 | -3 | ? | ? | 5%

Screens (PubChem)

Only part of the results is shown, so the mix of outcomes need not match the whole.
